Assay outcomes as filed in PubChem BioAssay.
RanGTP-Impb inh – disruptors of Ran-importin-beta complex formation – biochemical, FRET, CFP-Ran, YFP-importin-beta, homogeneous, primary screen. actives 1.1% (n = 300,000). inhibition, % (test concentration not listed). cell-free CFP-Ran/YFP-importin-beta FRET ratio;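 active = most replicates above 15%; inconclusive = exactly half above 15%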;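 also: 0% = DMSO wells and 100% = Ran loaded with GDP instead of GTP; wells of about 40 µL received 100 nL stock; the first replicate is given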
LANA-H2B inh – blocks KSHV LANA binding to histone H2A/H2B; actives 0.6% (n = 320,000); AID 2629; Q9QR71; inhibition, % (test concentration not listed); cell-free LANA-H2A/H2B peptide, fluorescence polarization; in the data active = inhibition mostly above about 10%, no sharp cut-off; inactive = mostly below about 6.7%;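 also: stock transfer was 7.5 nL into about 10 µL; 0% = median of vehicle wells and 100% = median of positive control wells; one replicate is shown; the record names a cut of 25% in any replicate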
Calb FLC – affects C. albicans growth with fluconazole. C. albicans CaCi-2 (fluconazole-resistant clinical isolate) + fluconazole, Alamar Blue growth, 48 h. growth inhibition, % (concentration not given with the values). actives 0.57% (n = 300,000). AID 1979;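 active = most replicates above 75%; inconclusive = exactly half above 75%; inactive = most below 75%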;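 also: all wells also contain fluconazole at 8 µg/ml as a sub-toxic cotreatment; 0% = median of DMSO wells and 100% = median of geldanamycin control wells; wells of about 8 µL received 7.5 nL stock; the first replicate is given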
HNF4A DNA FP – change in binding of human HNF4 alpha to DNA | HNF4a-FITC DNA binding, fluorescence polarization, 1 h | actives 0.3% (n = 360,000) | P41235 | activity change, % at 10 µM | AID 1224865; in the data active = activity change above about 30%, passing the limit was not always enough;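 also: controls were the assay level and a saturating level of protein; the project sought stronger binding though the title names inhibitors; some compounds called inactive have numbers as strong as hits; positive values seem to mean higher polarization but the record does not say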
Target sequence (P41235 whole entry, looked up): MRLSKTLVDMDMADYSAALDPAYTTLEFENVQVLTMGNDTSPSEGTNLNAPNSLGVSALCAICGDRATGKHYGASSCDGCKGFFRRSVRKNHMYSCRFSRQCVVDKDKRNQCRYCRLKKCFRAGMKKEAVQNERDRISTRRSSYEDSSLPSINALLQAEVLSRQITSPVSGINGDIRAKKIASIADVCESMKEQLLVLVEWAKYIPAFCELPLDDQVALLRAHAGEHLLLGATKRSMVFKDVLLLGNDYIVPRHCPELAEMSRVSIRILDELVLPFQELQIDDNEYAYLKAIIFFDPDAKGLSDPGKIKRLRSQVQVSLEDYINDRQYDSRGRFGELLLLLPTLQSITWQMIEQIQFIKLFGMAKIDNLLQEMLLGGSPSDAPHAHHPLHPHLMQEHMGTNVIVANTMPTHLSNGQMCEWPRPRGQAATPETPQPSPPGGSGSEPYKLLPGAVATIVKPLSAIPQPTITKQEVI
Beta2AR agonist – agonists of human beta-2 adrenergic receptor inducing internalization; P07550; Am2.2-beta2AR cells, FAP receptor internalization, flow cytometry; reference of the scale not given here; response, % (concentration not given with the values); actives 0.43% (n = 340,000); AID 504454;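 active = response above a set limit, near 3 SD of response in nonfluorescent compounds, cut at about 42% in these data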;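 also: stock transfer was 100 nL into about 11 µL; a reference agonist was the positive control; negative values mostly stem from fluorescent compounds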
Target sequence (P07550 whole entry, looked up): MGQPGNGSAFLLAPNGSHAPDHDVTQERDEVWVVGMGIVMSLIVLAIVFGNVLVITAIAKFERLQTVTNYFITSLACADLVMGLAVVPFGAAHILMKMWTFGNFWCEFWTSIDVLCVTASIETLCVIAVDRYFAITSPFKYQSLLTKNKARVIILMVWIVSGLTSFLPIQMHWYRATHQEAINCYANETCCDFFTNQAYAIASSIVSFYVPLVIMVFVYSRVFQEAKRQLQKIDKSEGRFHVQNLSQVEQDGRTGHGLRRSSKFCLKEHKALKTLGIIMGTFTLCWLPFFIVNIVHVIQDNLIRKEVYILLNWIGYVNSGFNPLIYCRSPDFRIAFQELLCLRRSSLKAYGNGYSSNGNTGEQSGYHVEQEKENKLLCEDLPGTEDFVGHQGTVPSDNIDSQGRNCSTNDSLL
ALR H2O2 inh – blocks human ALR sulfhydryl oxidase activity. inhibition, % (test concentration not listed). P55789. AID 485317. purified ALR, DTT oxidation, H2O2 HRP-luminol luminescence. actives 3.8% (n = 290,000);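 active = mean and each replicate at 75% or more; inconclusive = only one of the two met; inactive = neither met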;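 also: stock transfer was 7.5 nL into about 7.5 µL; 0% = neutral wells and 100% = wells with inactivated enzyme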
Vif TR-FRET – inhibitors of Vif binding to APOBEC3G peptide, primary screen, biochemical, TR-FRET, GST-Vif 1-94, biotin-A3G peptide, dose response retest (AID 1117319); actives 0.57% (n = 260,000); one-dose inhibition, %; IC50 in µM for titrated hits; TR-FRET GST-Vif / biotin-A3G peptide binding; higher % means a stronger effect; test concentration not given here; strong numbers were not always called active;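 active = above the screen mean plus three standard deviations and confirmed in dose response; inconclusive = results disagree or hit not tested in dose response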;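 also: Vif residues 1-94 fused to GST binding biotinylated APOBEC3G peptide 110-148; 0% = full assay without inhibitor and 100% = GST in place of GST-Vif; retest series ran down from 100 µM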
Active calls of the source: *; u = inconclusive; x = no result given; & = joins results of further samples.

canonical_smiles,RanGTP-Impb inh,LANA-H2B inh,Calb FLC,HNF4A DNA FP,Beta2AR agonist,ALR H2O2 inh,Vif TR-FRET
COc1ccc(-n2nc(C(=O)NCCCN3CCOCC3)c3ccccc3c2=O)c(OC)c1,-2.3,-1.6,-1,2.9,-1,-8,x
Cc1ccc(N(CC(=O)NCc2ccc(F)cc2)C(=O)c2csnn2)cc1C,-3.2,-2.8,8,-0.6,6,x,-3%
O=C(CSc1nnnn1-c1ccc(O)cc1)Nc1cccc(S(=O)(=O)N2CCCC2)c1,6.0,-2.3,-17,5.9,8,-8,-1%&29%
COC(=O)c1cc(OC)c(OC)cc1NC(=O)c1cccc(OC)c1OC,5.5,1.0,11,5.1,-5,5,-4%
COC(=O)c1sc(NC(=O)CC(C)C)c(C(=O)OC)c1C,x,0.7,2,-1.7,3,1,3%
Cc1sc(NC(=O)CSc2nnnn2C2CCCC2)c(C#N)c1C,-3.9,2.9,13,0.1,3,-1,0%
CS(=O)(=O)N(CC(=O)NCc1ccncc1)c1ccc(Cl)c(Cl)c1,-3.0,0.2,-5,0.5,-5,-14,4%
CCC(=O)OCC(=O)Nc1ccc2c(c1)OCO2,4.9,-2.6,-9,0.1,11,-12,2%
O=c1c2ccccc2nc(-c2ccco2)n1CCc1ccc(O)cc1,0.0,2.8,0,0.3,19,13,9%
COc1ccccc1NC(=O)C(C)NS(=O)(=O)c1ccc(F)cc1 (stereo not given),u,-6.9,-1,1.9,-12,0,69%
S=C(NCCc1c[nH]c2ccccc12)NC1CCCC1,4.2,-4.6,-14,-1.8,-10,60,-6%
CCOC(=O)c1ccc(NC(=O)Nc2ccc3c(c2)OCCO3)cc1,5.7,6.6,-3,-0.7,4,-21,27%
Clc1ccc(-n2nnc(-c3cccnc3Cl)n2)cc1Cl,-1.1,0.5,3,-3.3,11,3,0%
CCCCNc1c([N+](=O)[O-])ncn1C,-4.4,4.5,-13,5.0,-6,-3,-9%
O=c1c2ccccc2nc2c3ccccc3c3nncn3n12,5.5,x,5,-3.9,-4,x,-3%
CCOc1cc(Br)ccc1S(=O)(=O)NCc1ccccc1,1.7,2.8,26,1.4,-10,-15,10%
O=C(CSc1n[nH]c(-c2ccccc2)n1)Nc1ccc(Br)cn1,4.9,0.2,12,2.5,-3,10,15%
Cc1cccc(NC(=O)CNC(=O)CN2C(=O)NC3(CCc4ccccc43)C2=O)c1C (stereo not given),x,x,x,1.9,5,x,1%
CC(=O)c1ccc(Oc2cnccn2)cc1,-2.5,-0.8,0,2.9,-7,-9,6%
Cc1cc(Cl)c2oc(C(=O)N(CCO)Cc3ccccc3)c(C)c2c1,-1.0,-1.4,13,4.0,-62,1,x
Cc1nn(Cc2ccc(C(=O)Nc3nc4c(C)cccc4s3)o2)c(C)c1Br,u,-0.9,4,1.0,7,-6,0%
Cc1cc(NC(=O)CSc2nc3ccccc3[nH]2)n(-c2ccccc2)n1,u,1.7,-2,-4.0,-10,-9,0%
CCOc1ccc(C(=O)N2CCN(Cc3ccccc3)CC2)cc1,-3.6,5.0,3,2.8,-2,-4,-4%
Cc1ccc(S(=O)(=O)Nc2ccc(N(C)S(=O)(=O)c3ccc(C)cc3)cc2)cc1,4.0,4.3,32,-1.1,9,-10,-5%
CC(=O)Nc1ccc(C(=O)N/N=C/c2cc(Br)cc(Br)c2O)cc1,-3.8,7.2,61,12,13,1,-20%
COc1ccccc1CNS(=O)(=O)c1ccc(-n2cnnn2)c(C)c1,1.1,-6.0,1,4.7,-3,-1,-13%
CCOC(=O)c1c(NC(=O)c2ccn(CC)n2)sc2c1CCC2,3.9,1.6,11,-0.6,0,4,x
CC(C)(C)NC(=O)C1N(c2cccnc2)C(=O)C2C(C(=O)Nc3ccccc3F)C3(C)C=CC21O3 (stereo not given),-3.5,0.2,-20,4.9,-3,x,77%
O=C(NCc1ccccc1)c1ccc(Br)cc1,-5.1,4.1,-6,-2.5,1,6,x
O=[N+]([O-])c1ccc(NCCN2CCOCC2)c([N+](=O)[O-])c1,-1.5,2.8,7,1.3,-5,-15,x
O=C1c2ccccc2C(=O)c2c1cccc2N1CCN(C/C=C/c2ccccc2)CC1,-1.8,6.4,8,-4.2,5,-7,x
O=C1C2CC=CCC2C(=O)N1c1ccc(NCCc2cccc(F)c2)c([N+](=O)[O-])c1 (stereo not given),u,6.0,1,3.4,2,x,-6%
O=C(COc1ccc([N+](=O)[O-])cc1Cl)NCCN1C(=O)CSC1=O,x,-0.5,x,5.2,4,x,x
COc1ccc(Cc2nnc(NC(=O)c3cccc(F)c3)s2)cc1OC,u,3.2,-2,-2.6,-62,-5,x
Cc1cc(Cl)c(OCCCN(C)C)c(Br)c1,5.9,0.7,2,-1.7,-6,x,1%
O=S(=O)(NCc1ccccn1)c1cc(OCC(F)(F)F)ccc1OCC(F)(F)F,7.4,1.2,-2,-3.8,-3,-3,1%
O=C(N/N=C/C=C\c1ccco1)c1cccs1,-3.1,2.4,-26,-1.1,-5,-1,2%
CSc1cccc(CNC(=O)C2CCC(=O)N(CC3CCCCC3)C2)c1 (stereo not given),1.0,7.2,-12,-0.7,7,-3,x
Cc1ccc(F)cc1NC(=O)CSc1n[nH]c(N)n1,x,-0.8,x,-2.9,16,-7,x
CC(C)/C(=N\NS(=O)(=O)c1ccc(Br)cc1)c1cccs1,1.8,-4.7,-2,3.5,5,80*,2%
Nn1c(SCC(=O)NCCCc2ccccc2)nnc1-c1cccnc1,-0.5,0.8,9,-2.0,-3,x,-3%
Clc1ccc(-n2nnnc2-c2ccccc2)cc1Cl,x,2.0,x,6.4,-3,-6,-6%
COc1ccc(/C=N/NC(=O)Nc2ccc3nsnc3c2)c(OC)c1,-1.1,2.9,-6,0.3,4,x,-6%
CN1CCN(c2nc3c(c(=O)n(C)c(=O)n3C)n2Cc2ccccc2)CC1,-4.0,1.5,-4,-2.2,3,-9,10%
CCc1ccc(NC(=O)CSc2nc(=O)n(CCCN3CCOCC3)c3c2CCCC3)cc1,1.5,1.7,7,5.7,-2,98*,-7%
C/C(=N\OCC(=O)NC(C)C)c1cccs1,-0.7,-1.5,28,3.6,4,-8,-1%
COc1cccc(OCCNC(=O)c2ccccc2Sc2ccccc2C#N)c1,5.5,0.6,-5,-2.4,-2,1,u
Cc1cc(C)c(NC(=S)N(CCCN2CCN(C)CC2)Cc2cccs2)c(C)c1,-1.7,-3.1,-13,-1.2,2,x,-6%
CC1(C)CC2CC(C)(CN2S(=O)(=O)c2cccc(C(=O)O)c2)C1 (stereo not given),x,-3.2,x,2.3,-3,x,x
COc1ccc(NC(=O)CSc2nc3nc(C)cc(C)c3c(=O)[nH]2)cc1,7.0,-3.2,15,-5.9,-1,-4,x
O=C1C(c2ccc(F)cc2)N(Cc2ccc3c(c2)OCO3)C(=O)CN1C1CCCCCC1 (stereo not given),12,7.7,-15,5.0,4,-5,u
O=C(NC1CCSc2ccccc21)c1cccc(Cl)c1 (stereo not given),3.0,8.7,4,0.4,-2,-5,x
CC(C)Sc1nc2c(cnn2-c2ccc(Cl)cc2)c(=O)[nH]1,3.7,-4.3,1,-1.8,3,2,0%
c1csc(CNc2ncnc3ccc(-c4ccc5c(c4)OCO5)cc23)c1,x,-2.9,x,-3.9,5,-5,x
OCCNc1nc2ccccc2nc1NCCO,3.5,-0.6,1,2.0,2,-3,-5%
CN1c2ccccc2C(=O)NC1c1ccc([N+](=O)[O-])s1 (stereo not given),-0.3,0.8,-6,0.3,-2,-39,-4%
CCCn1c(C(O)c2ccc(OC)c(OC)c2)nc2ccccc21 (stereo not given),9.0,2.5,-10,-0.1,0,-8,x
Cc1cc(NS(=O)(=O)c2ccc(NC(=O)/C=C/c3ccc(Br)cc3)cc2)no1,x,0.3,x,2.2,12,0,x
O=C1CCCN1c1ccc(CNS(=O)(=O)c2ccc(F)cc2)cc1,-2.9,-2.1,-1,5.6,4,-9,3%
O=C(COc1ccc(C(=S)N2CCC(Cc3ccccc3)CC2)cc1)N1CCOCC1,-2.6,-5.0,31,1.7,2,-5,-9%

Reprinted from the part before: two entries, then new ones.
canonical_smiles,RanGTP-Impb inh,LANA-H2B inh,Calb FLC,HNF4A DNA FP,Beta2AR agonist,ALR H2O2 inh,Vif TR-FRET
O=C1CCCN1c1ccc(CNS(=O)(=O)c2ccc(F)cc2)cc1,-2.9,-2.1,-1,5.6,4,-9,3%
O=C(COc1ccc(C(=S)N2CCC(Cc3ccccc3)CC2)cc1)N1CCOCC1,-2.6,-5.0,31,1.7,2,-5,-9%
CCCOc1ccccc1C1NC(=O)NC(C)=C1C(=O)OCCOCC (stereo not given),5.4,-0.2,-2,-4.2,-2,1,0%
COc1cc([N+](=O)[O-])cc2cc(C(=O)N3CCCC3)c(=O)oc12,-0.8,1.2,-4,-3.3,5,-15,2%
Cc1cc(C(=S)N2CCOCC2)c(C)n1-c1ccc(Cl)cc1,-1.0,0.2,-6,-2.6,-13,20,x
COc1cc(CNc2nnnn2C)ccc1OCc1ccc(F)cc1Cl,-3.6,-6.1,7,-4.4,0,6,1%
COc1ccc2cc(C(=O)C3CCCN(Cc4ccccn4)C3)ccc2c1 (stereo not given),3.3,-1.2,0,-2.2,4,-110,x
CCOc1cccc(/C=N/N2CCN(c3ccc(Cl)cc3)CC2)c1O,-0.9,-3.3,4,-0.9,-3,10,5%
NC(=O)CN1C(=O)NC2(CCCc3sccc32)C1=O (stereo not given),3.4,-4.9,6,-2.6,5,-1,x
CC(=O)N/C(=N/c1nc(C)cc(C)n1)Nc1ccc(C)cc1C,3.2,-2.8,0,3.0,3,-6,0%
CSc1nsc(SCC(=O)N2CCCCC2)n1,-3.4,1.2,-7,0.0,10,11,3%

Structural class: the entries above containing a cyano group
canonical_smiles,RanGTP-Impb inh,LANA-H2B inh,Calb FLC,HNF4A DNA FP,Beta2AR agonist,ALR H2O2 inh,Vif TR-FRET
Cc1sc(NC(=O)CSc2nnnn2C2CCCC2)c(C#N)c1C,-3.9,2.9,13,0.1,3,-1,0%
COc1cccc(OCCNC(=O)c2ccccc2Sc2ccccc2C#N)c1,5.5,0.6,-5,-2.4,-2,1,u
